# Source: PubChem BioAssay (National Center for Advancing Translational Sciences (NCATS))
# D2 ag = agonists of human D2 dopamine receptor (beta-arrestin); P14416; DiscoveRx PathHunter D2 beta-arrestin, luminescence, 90 min; 100% = 57 uM dopamine signal; hit rate 0.084% among 360,000; activation, % (concentration not given with the values); in the data active = activation above about 40%; inconclusive = about 15% to 40%; inactive = below about 15%; note: compound concentration not given in the record; the text of the record calls up to 30% inactive
#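 Agonist mode: compounds alone added to overnight-plated D2 PathHunter cells for 90 min at 37 C, with 57 uM final dopamine (EC100) defining full response. Beta-arrestin recruitment detected by chemiluminescent reagent, read after 1 h at ambient temperature.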
# CtBP-E1A blk = blocks the CtBP interaction with E1A | AlphaScreen GST-E1A/His-CtBP binding, 1536-well; hits give low values; control for the full effect not named in the record | activity change, % (test concentration not listed) | hit rate 0.49% among 340,000 | AID 651724; in the data active means activity change below about -65%; inconclusive means about -30% to -65%; inactive means above about -30%; note: % is set by controls: 0 for no effect and ±100 for the full control effect; compound concentration not given in the record
#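 Protein mix (5X: 125 nM each GST-E1A, His-CtBP) was incubated with pinned compound 2 h at 37 deg C in dark, in 50 mM Tris pH 8.0 buffer with 300 mM NaCl. Glutathione donor and nickel acceptor beads followed; AlphaScreen signal read after 1 h.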
# TRPV1 PAM = human TRPV1 potentiation; TRPV1-expressing cells, Fluo-8 calcium influx, capsaicin EC20 potentiation; host cell line not named in the record; control for the full effect not named in the record; potentiation, % at 8.33 µM; hit rate 0.02% among 320,000; active means potentiation above 80%; inconclusive means 30% to 80%; inactive means below 30%; note: 0% is about no effect
#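 Fluo-8 calcium influx in TRPV1-expressing cells, kinetic read (ex 480/em 520 nm). Compound added and read 3 min for agonist activity, followed by capsaicin at EC20 final and 2 min further read for enhancement.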
# Six1-Eya2 blk = inhibitors of human Six1/Eya2 interaction | hit rate 0.56% among 360,000 | AID 651725 | Q15475+O00167 | activity change, % (test concentration not listed) | AlphaScreen GST-Six1/His-Eya2 binding, biochemical; hits give low values; control for the full effect not named in the record; in the data active = activity change below about -65%; inconclusive = about -30% to -65%; inactive = above about -30%; note: % is set by controls: 0 for no effect and ±100 for the full control effect; compound concentration not given in the record
# Target sequence (O00167 whole entry, looked up): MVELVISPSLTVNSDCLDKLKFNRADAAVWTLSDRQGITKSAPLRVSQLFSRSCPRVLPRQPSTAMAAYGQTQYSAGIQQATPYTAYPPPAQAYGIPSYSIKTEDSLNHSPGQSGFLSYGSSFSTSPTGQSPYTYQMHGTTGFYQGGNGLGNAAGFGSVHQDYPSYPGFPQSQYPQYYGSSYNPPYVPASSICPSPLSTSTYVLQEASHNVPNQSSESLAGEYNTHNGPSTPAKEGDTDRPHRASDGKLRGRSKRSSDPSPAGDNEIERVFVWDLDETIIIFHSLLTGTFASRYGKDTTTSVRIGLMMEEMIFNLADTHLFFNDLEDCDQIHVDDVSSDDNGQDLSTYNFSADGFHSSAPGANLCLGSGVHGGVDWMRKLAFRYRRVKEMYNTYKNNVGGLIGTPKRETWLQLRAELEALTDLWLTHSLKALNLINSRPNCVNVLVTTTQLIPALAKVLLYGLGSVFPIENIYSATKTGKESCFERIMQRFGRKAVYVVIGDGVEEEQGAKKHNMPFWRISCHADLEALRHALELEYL
# Target sequence (Q15475 whole entry, looked up): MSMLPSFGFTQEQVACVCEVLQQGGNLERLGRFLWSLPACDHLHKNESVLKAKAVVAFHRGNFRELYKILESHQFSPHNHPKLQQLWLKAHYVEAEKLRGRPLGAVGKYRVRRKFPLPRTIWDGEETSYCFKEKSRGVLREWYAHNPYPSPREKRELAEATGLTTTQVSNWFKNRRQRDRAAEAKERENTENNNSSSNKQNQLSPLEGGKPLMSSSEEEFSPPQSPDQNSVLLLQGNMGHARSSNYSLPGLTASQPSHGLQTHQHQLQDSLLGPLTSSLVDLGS
#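 Six1/Eya2 binding was read as AlphaScreen signal after compounds were pinned into GST-Six1 plus His-tagged Eya2 (5X stock 250/500 nM) in pH 8.0 Tris/NaCl/TCEP buffer, beads added, then incubated 1 h, 37 C, dark.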
# Sfp inh = Sfp phosphopantetheinyl transferase inhibition; Biochemical Sfp PPTase activity, qHTS; hit rate 3.5% among 310,000; Potency, µM, inactives show max response, negative = inhibition, usual class: inhibitors; Q9F4F7; active = well fitted inhibition curve with a large enough effect; inconclusive = small, poorly fitted or top-dose-only effect, or another doubt; inactive = no such curve, though single readings can be large or run the other way;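 note: the enzyme is Sfp with the accession as filed and its product quenches rhodamine fluorescence; potency is the fitted concentration of half-maximal effect; 0% = enzyme reaction without inhibitor and -100% = no enzyme wells; top concentration of the series not given in the record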
#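 Fluorescence-quenching assay with 15 nM Sfp, 5 uM rhodamine-CoA and 12.5 uM BHQ-2-labelled ybbR peptide in pH 7.6 Hepes/MgCl2 buffer. Enzyme was pre-incubated with compound for 15 min at room temperature. Rate was taken from the 30-min fluorescence change (525/598 nm).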
# D2 potentiator = potentiates the human D2 dopamine receptor allosterically | potentiation, % (test concentration not listed) | DiscoveRx D2 beta-arrestin cells, luminescence, 90 min; 100% = 57 uM dopamine signal | hit rate 0.23% among 360,000; active = potentiation of 50% or more; inconclusive = 30% to 50%; inactive = 30% or less;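 note: compound concentration not given in the record; tested on top of an EC20 dose of dopamine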
#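 PathHunter D2 cells, attached overnight at 37 deg C, received compound in DMSO plus dopamine at EC20 (50 nM final) for 90 min at 37 deg C. Beta-arrestin recruitment was read as luminescence after 1 h with detection reagent at ambient temperature.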
# PINK1 expr mod = changes PINK1 expression; hit rate 0.2% among 410,000; Potency, µM (titrated, usually from 76.6 µM), inactives show top-dose activation (PINK1 increase), most hits filed as activators; PINK1 immunofluorescence, high-content cytometry, 24 h; active = well fitted activation curve with a large enough effect; inconclusive = small, poorly fitted or top-dose-only effect; inactive = flat fitted curve, though single readings scatter; cell line not stated here;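 note: potency is the fitted concentration of half-maximal effect; % of control where 0% means no effect; nearly all actives have a fitted effect of over 65% in size; a mitochondrial uncoupler was the plate control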
#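 Decision-based qHTS: stable cells, 24 h exposure to five compound concentrations, CCCP as control. Fixed cells stained for PINK1 plus nuclear, mitochondrial and cell markers, cytometer read.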
# Active calls of the source: *; ? = inconclusive; · = no result given; & = joins results of further samples; [ ] = dose if it differs, or a comment. The order is random; 3.7% or so of the library scored in one or more.
SMILES,D2 ag,CtBP-E1A blk,TRPV1 PAM,Six1-Eya2 blk,Sfp inh,D2 potentiator,PINK1 expr mod
Cc1cccc(-c2noc(CN(C(=O)/C=C/c3ccccc3Cl)C(C)C)n2)c1,-5.9,-4,-5,6,-10%,-4,2.2%
COc1ccc(-c2nn(-c3ccccc3)cc2/C=N/Nc2cccc(C(=O)O)c2)cc1,1.2,2,0,-8,7%,-16,2.8%
Cc1c(NC(=S)N2CCN(c3ccc(F)cc3)CC2)c(=O)n(-c2ccccc2)n1C,-6.1,9,7,-2,26%,-3,0.9%
CC(=O)c1sc2nc(C)c3c(c2c1N)CCCC3,3.4,-11,19,-2,?,0,-0.9%
Cc1cccc(-c2nc3sc(C)cc3c(=O)o2)c1,-2.7,3,5,3,6%,-6,3.2%
CCN1CCN(Cc2ccc(NC(=O)c3ccc(C)c(/C=C/c4cnc(Nc5cc(N6CCNCC6)nc(C)n5)cn4)c3)cc2C(F)(F)F)CC1,0.3&2.9,-9&-7,-6,-1&12,56µM*,-20,-0.8%&-0.9%
CCOc1ccc(NC(=O)N2CCCC2C(=O)NCc2ccco2)cc1 (stereo unspecified),-2.9,5,-4,-2,12%,-7,-0.5%
Cc1nn(CC(=O)OCC(=O)Nc2c(C(C)C)cccc2C(C)C)c(C)c1[N+](=O)[O-],-0.9,3,3,1,-8%,-1,0.1%
Cc1ccc(NC(=O)c2cc(F)c(F)cc2Cl)nc1,-3.6,6,-15,3,10%,-3,4.7%
CC(=O)C[C@@H](O)CC(=O)[C@@H]1OC(=O)[C@H](C)CCCCc2ccccc21,-1.9,1,·,1,·,·,0.3%
O=S(=O)(c1ccc(Sc2nnc3ccccn23)nc1)N1CCOCC1,0.2,-3,9,8,12%,-2,0.3%
CCOC(=O)c1sc2nc(-c3ccccc3)ccc2c1N,0.4,2,-4,-1,-21%,-3,1.1%
Cc1cc(=O)[nH]c(SCC(=O)Nc2ccccc2[N+](=O)[O-])n1,8.2,6,19,8,13%,4,-1.3%
O=C(NCc1ccco1)c1ccc(F)c(S(=O)(=O)N2CCCCC2)c1,-0.7,-10,-5,5,8%,-6,2.3%
O=C(O)c1cc(N2N=C(C(F)(F)F)/C(=C/C=C/c3ccco3)C2=O)ccc1Cl,-5.1,-11,-10,-78*,22µM*,-15,0.9%
CCOc1ccc(C(=O)NCC(C)CN(C)C)cc1OCC (stereo unspecified),-1.9,0,?,2,6%,-16,-0.9%
Cc1cc(C)cc(CC2CC(=O)N(c3cc(C)ccc3C)C2=O)c1 (stereo unspecified),-0.5,8,-8,7,-2%,1,0.6%
Cc1cccc(C(=O)NC(C)C(c2cccs2)N2CCOCC2)c1 (stereo unspecified),2.7,4,1,-1,12%,16,-1.9%
O=C(Nc1nnc(C2=COCCO2)o1)c1ccc(S(=O)(=O)N2CCCCC2)cc1,-1.4,-9,-12,-6,-10%,-6,-1.8%
COC(=O)CN1C(C)=Nc2ccc(C)cc2C1c1ccccc1 (stereo unspecified),-2.6,-1,11,4,18%,-17,0.8%
CCOC(=O)[C@@H]1[C@H]2COc3ccccc3[C@H]2N2C(=O)N(c3ccc(C(F)(F)F)cc3)C(=O)[C@]12C,-0.2,-4,1,-2,16%,-7,11%
O=C(N/N=C/c1cccnc1)c1cccc(N2CCCC2=O)c1,-4.0,3,-4,-10,9%,-7,0.2%
Cc1ccc2c(c1)C1C[N+](C)(CC(=O)Nc3ccccc3Cl)CCC1N2C(=O)c1ccccc1Cl (stereo unspecified),-4.4,-1,·,-6,·,-16,1.5%
O=C(NC1=NCCS1)NC12CC3CC(CC(C3)C1)C2,-0.4,1,-12,2,15%,-2,4.7%[38.3 µM]
O=C(NC(=S)Nc1ccc2ncccc2c1)c1ccccc1,?,5,-6,8,50µM*,-2,7.9%
Cc1cnc(C(=O)Nc2cccc3cccnc23)cn1,-2.4,3,-17,-1,14%,-6,-0.3%
CCn1c(C)cc(/C=C2/SC(=S)N(CC(=O)O)C2=O)c1C,-4.7,-7,4,-6,-6%,-9,1.6%
COc1ccc(N2CCN(C(=O)CSc3nc(C)cs3)CC2)cc1,-3.9,-7,-18,0,·,-16,-3.5%
CCOc1ccccc1OCCOc1ccc(F)cc1,-0.9,44,?,68,12%,-6,-0.2%
CC(Nc1nc(-c2ccc(F)cc2)cs1)c1nc2cc(Cl)c(N3CCCCC3)cc2n1CCCO (stereo unspecified),5.8,-2,·,-3,·,-5,19%

# 5 compounds from above, sorted by number of heavy atoms, ascending:
SMILES,D2 ag,CtBP-E1A blk,TRPV1 PAM,Six1-Eya2 blk,Sfp inh,D2 potentiator,PINK1 expr mod
O=C(NC1=NCCS1)NC12CC3CC(CC(C3)C1)C2,-0.4,1,-12,2,15%,-2,4.7%[38.3 µM]
Cc1cnc(C(=O)Nc2cccc3cccnc23)cn1,-2.4,3,-17,-1,14%,-6,-0.3%
CCOc1ccc(C(=O)NCC(C)CN(C)C)cc1OCC (stereo unspecified),-1.9,0,?,2,6%,-16,-0.9%
COC(=O)CN1C(C)=Nc2ccc(C)cc2C1c1ccccc1 (stereo unspecified),-2.6,-1,11,4,18%,-17,0.8%
Cc1cc(C)cc(CC2CC(=O)N(c3cc(C)ccc3C)C2=O)c1 (stereo unspecified),-0.5,8,-8,7,-2%,1,0.6%

# More records follow:
SMILES,D2 ag,CtBP-E1A blk,TRPV1 PAM,Six1-Eya2 blk,Sfp inh,D2 potentiator,PINK1 expr mod
O=C(NCCO)c1nc(C(=O)c2ccccc2)c2ccccc2n1,-7.2,3,-1,5,·,-16,1.4%
CC(C)c1c(C(=O)N/N=C/c2ccccc2OCc2c(F)cccc2Cl)nnn1-c1nonc1N,2.1,2,11,1,18%,-8,4.6%
Cc1ccc(S(=O)(=O)N2CCN(c3cc4c(cc3[N+](=O)[O-])n(C)c(=O)n4C)CC2)cc1,-0.2,-15,12,-15,-2%,3,·
O=C(/C=C/c1cccs1)NCc1ccccc1,-6.6,5,-20,5,11%,-14,-1.8%
Cc1cc(C)n(CCNC(=O)c2ccco2)n1,-1.2,-3,-8,0,10%,1,2.3%
CCc1ccccc1NC(=O)CN1C(=O)C2CCCN2c2ncc(Cl)cc21 (stereo unspecified),-9.0,3,-3,0,-1%,-4,4.2%
Cc1ccc(S(=O)(=O)NN=C2CC3CC2C2CCCC32)cc1 (stereo unspecified),-3.7,-9,·,35,·,-16,0.3%
Cc1cc(N2CCCCC2)nc2ccccc12,-4.5,15,-6,24,20%,-8,0.6%
O=S(=O)(c1ccc(F)cc1F)N1CCCN(c2ccc(C(F)(F)F)cn2)CC1,-3.0,10,-17,-9,27%,-3,7.8%
O=C(COC(=O)[C@@H]1CCCN1C(=O)c1cccs1)Nc1ccc(Br)cc1,-6.5,-11,·,7,·,-6,0.1%
COc1cc2c(C(=O)N3CCN(c4cccc(Cl)c4)CC3)cn(CC(C)C)c(=O)c2cc1OC,-1.5,12,-12,?,0%,1,2.2%
c1cc2c3c(cccc3c1)NC1(CCCC1)N2,0.6,10,·,-7,·,-10,-0.8%
CCCCCOc1ccc(NC(=O)C(=O)NCCCn2ccnc2)cc1,-0.4,1,6,-3,-9%,13,-0.8%
O=c1[nH]c(CSc2ncnc3sccc23)nc2ccccc12,-2.0,-8,-2,0,-1%,-4,2.2%
COc1ccc(-c2cc(C(=O)NC3CCCC3)no2)cc1OC,-4.0,0,18,1,27%,-10,3.9%[38.3 µM]
O=C(O)c1c(-c2ccccc2)c2oc3ccccc3c2[nH]c1=O,-1.9,-4,2,-2,?,-2,·
O=C(N/N=C/c1cc(Br)ccc1O)C(c1ccncc1)N1CCOCC1 (stereo unspecified),-3.3,14,11,-89*,2%,-9,3.3%
CC(NC(=O)Cn1cc2c(n1)CCCCC2)c1ccccc1 (stereo unspecified),-2.5,7,-7,3,17%,0,-0.1%
CCOc1ccccc1C(=O)NCCCCCC(=O)O,-3.3,-5,-4,2,15%,-8,-0.7%
Cc1ccc(/C=C/C(=O)Nc2cc(C)on2)cc1,-1.9,1,5,3,-1%,-13,-0.3%
O=C(Nc1cccc(Cl)c1)Nc1ccccc1-n1ccnc1,0.3,12,16,-5,-4%,-12,7.1%
C(#Cc1ccccc1)C[N+]1(CC#Cc2cccc3ccccc23)CCCC1,-0.7,-11,-6,-2,?,-4,5.7%
O=C(NNC(=S)Nc1ccc(OC(F)F)cc1)c1cc2c(s1)CCCC2,-5.1,0,3,7,14%,-20,0.0%
CCCC1=C(C(=O)OCC)C(c2ccncc2)n2ncnc2N1 (stereo unspecified),-0.8,1,5,3,10%,-6,-5.5%[38.3 µM]
O=C(CSc1nc2[nH]ncc2c(=O)n1-c1ccccc1)N1CCCc2ccccc21,-2.5,-6,-4,-20,10%,-17,-20%[38.3 µM]
CCC1(c2ccccc2)NC(=O)N(CC(=O)Nc2cc(S(=O)(=O)N3CCCCC3)ccc2N(C)C)C1=O (stereo unspecified),3.2,-5,15,-5,·,-4,4.6%
O=C(Cn1cnc2cc([N+](=O)[O-])ccc2c1=O)NC1CCS(=O)(=O)C1 (stereo unspecified),-18,-7,8,-11,?,-4,0.4%
CC(=O)NC(CCS(C)(=O)=O)C(=O)Nc1cccc(C)c1C (stereo unspecified),-3.3,-1,-8,0,17%,-5,2.4%
Cn1ccc(C(=O)OCC(=O)Nc2cccc(Cl)c2)n1,-2.9,-13,1,2,6%,-5,2.7%
Cc1c(CN2CCCCC2)c(O)n(CCO)c(=O)c1C#N,9.6,4,3,-1,-8%,2,3.8%
CN1C2=NCCN2C(=O)c2cc(Cl)ccc21,-1.7,-13,-9,-17,6%,-6,-0.8%
CCC(=O)NN1CCN(c2ccncc2S(=O)(=O)N2CCCCC2)CC1,13,5,-4,8,23%,2,0.8%
CCC(=O)Nc1nc2cc(OC)ccc2s1,-4.9,2,-8,-2,17%,-6,-2.4%
O=[N+]([O-])c1ccc(COc2ccc(Br)cc2CN2CCOCC2)cc1,7.2,-1,-7,-18,-6%,-18,-0.3%
O=C(Nc1ccc(N2CCOCC2)nc1)c1ccc(F)cc1,0.3,6,-18,3,-6%,8,2.6%
CC(C)C(c1nnnn1CCc1ccccc1)N1CCC(C(N)=O)CC1 (stereo unspecified),-3.3,3,6,-4,5%,-2,-0.9%
Cc1cccc(/C=N\N=C\c2cccc(C)c2)c1,1.9,3,-7,12,-10%,-1,9.7%
